# Bioassay records: PubChem, National Center for Advancing Translational Sciences (NCATS)
# Sfp PPTase inh – qHTS Assay for Inhibitors of Bacillus subtilis Sfp phosphopantetheinyl transferase (PPTase); 4'-phosphopantetheinyl transferase ffp (Bacillus subtilis), Q9F4F7; Potency, µM, for inactives: max response, negative = inhibition, most hits filed as inhibitors; Biochemical Sfp PPTase activity, qHTS; 310,000 tested, 3.5% active; active = well fitted inhibition curve with a large enough effect; inconclusive = small, poorly fitted or top-dose-only effect, or another doubt; inactive = no such curve, though single readings can be large or run the other way;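 note: the enzyme is Sfp with the accession as filed and its product quenches rhodamine fluorescence; potency is the fitted concentration of half-maximal effect; 0% = enzyme reaction without inhibitor and -100% = no enzyme wells; top concentration of the series not given in the record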
#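 After 15 min at room temperature with compound, 15 nM Sfp received 5 uM rhodamine-CoA plus 12.5 uM BHQ-2-ybbR (50 mM Hepes pH 7.6, 10 mM MgCl2). Rate came from the fluorescence difference over 30 min, ex 525/em 598 nm.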
# Menin-MLL FL inh – qHTS Assay for Inhibitors Targeting the Menin-MLL Interaction in MLL Related Leukemias: Competition With Fluorescein Labeled MLL-derived Peptide; Fluorescence polarization, fluorescein-MLL peptide displacement from menin; FP activity change, % at 61.4 µM; 290,000 tested, under 10 active; AID 1766, 2009; inconclusive = falling polarisation curve, or a change in total fluorescence; inactive = total fluorescence flat and polarisation flat or rising; no compound was filed as active; the % refers to the polarisation; negative = inhibition;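 note: % of control where 0% means no effect; inhibitors lower the polarisation; unlabelled MLL peptide was the positive control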
# D2 agonist – Beta-Arrestin HTS for Positive Allosteric Modulators of the Human D2 Dopamine Receptor: Agonists. D(2) dopamine receptor (Homo sapiens), P14416. DiscoveRx PathHunter D2 beta-arrestin, luminescence, 90 min; 100% = 57 uM dopamine signal. activation, % (concentration not given with the values). 360,000 tested, 0.084% active; in the data active = activation above about 40%; inconclusive = about 15% to 40%; inactive = below about 15%; note: compound concentration not given in the record; the text of the record calls up to 30% inactive
# Target sequence (P14416 whole entry, looked up): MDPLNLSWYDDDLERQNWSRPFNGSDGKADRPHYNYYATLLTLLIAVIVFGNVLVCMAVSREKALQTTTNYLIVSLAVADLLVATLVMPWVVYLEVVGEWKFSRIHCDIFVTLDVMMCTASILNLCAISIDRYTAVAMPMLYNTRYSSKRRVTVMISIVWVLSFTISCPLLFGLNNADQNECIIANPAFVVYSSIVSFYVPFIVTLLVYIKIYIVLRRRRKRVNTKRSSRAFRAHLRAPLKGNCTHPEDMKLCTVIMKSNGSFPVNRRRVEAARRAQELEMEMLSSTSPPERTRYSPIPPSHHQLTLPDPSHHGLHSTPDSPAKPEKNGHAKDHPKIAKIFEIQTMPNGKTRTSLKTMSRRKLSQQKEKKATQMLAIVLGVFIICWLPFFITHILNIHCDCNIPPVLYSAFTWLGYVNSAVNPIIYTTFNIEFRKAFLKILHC
#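 Agonist mode: compounds alone added to overnight-plated D2 PathHunter cells for 90 min at 37 C, with 57 uM final dopamine (EC100) defining full response. Beta-arrestin recruitment detected by chemiluminescent reagent, read after 1 h at ambient temperature.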
# ClpP mod – qHTS Assay for Activators of ClpP | ATP-dependent Clp protease proteolytic subunit (Bacillus subtilis (strain 168)), P80244 | purified B. subtilis ClpP, FRET peptide cleavage, 20 min | Potency, µM (series often up to 57.5 µM), inactives show at the top dose activity change, negative = active | 340,000 tested, 1.9% active; active = well fitted falling curve with a large enough effect; inconclusive = small, poorly fitted or top-dose-only effect; inactive = no such curve, though single readings can be large or run the other way; note: potency is the fitted concentration of half-maximal effect; the source files actives as falling curves though it sought activators and does not explain the sign; nearly all actives have a fitted effect of over 65% in size; many hits overshoot -100%
# Target sequence (P80244 whole entry, looked up): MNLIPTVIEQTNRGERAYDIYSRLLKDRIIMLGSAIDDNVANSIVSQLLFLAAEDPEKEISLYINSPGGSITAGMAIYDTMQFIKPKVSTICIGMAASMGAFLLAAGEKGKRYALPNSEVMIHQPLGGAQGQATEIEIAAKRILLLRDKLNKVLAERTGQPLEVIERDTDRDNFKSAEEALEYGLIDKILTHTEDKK
#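 ClpP 10 microg/mL final, pH 8 Tris/KCl buffer with BSA, glycerol, Tween-20; compound pinned in; FRET-FV substrate; RT 20 min; Ex320/Em430; ΔFRET vs ADEP 5.8 microM, DMSO, no enzyme.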
# PINK1 modulator – A Quantitative High throughput Screen to Identify Chemical Modulators of PINK1 Expression | PINK1 immunofluorescence, high-content cytometry, 24 h | 410,000 tested, 0.2% active | AID 624263, 2012 | Potency, µM (series often up to 76.6 µM), without a hit: at the highest dose activation (PINK1 increase), actives largely listed as activators; active = well fitted activation curve with a large enough effect; inconclusive = small, poorly fitted or top-dose-only effect; inactive = flat fitted curve, though single readings scatter; cell line not stated here;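 note: potency is the fitted concentration of half-maximal effect; % of control where 0% means no effect; nearly all actives have a fitted effect of over 65% in size; a mitochondrial uncoupler was the plate control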
#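 Measures PINK1 amount and localization on or inside mitochondria by immunofluorescence. Stable cells get compounds at 5 concentrations for 24 hours before fixation and staining; CCCP controls included.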
# gsp agonist – qHTS for Agonist of gsp, the Etiologic Mutation Responsible for Fibrous Dysplasia/McCune-Albright Syndrome: qHTS; gsp mutant cells, cAMP HTRF, 30 min; control for the full effect not named in the record; Potency, µM (highest dose often 76.9 µM), for inactives: top-dose activation (cAMP increase), hits mostly activators; 340,000 tested, 0.13% active; AID 624287, 2012; active = well fitted activation curve with a large enough effect; inconclusive = small, poorly fitted or top-dose-only effect, or another doubt; inactive = no such curve, though single readings can be large or run the other way; cell line not stated here;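 note: phosphodiesterase inhibitor Ro 20-1724 added with compounds to block cAMP breakdown; potency is the fitted concentration of half-maximal effect; nearly all actives have a fitted effect of over 60% in size; about a fifth of the inactives were tested at one dose only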
#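 Cells in DMEM/10% FBS with G418 were pretreated with compounds in DMSO plus […] (300 uM stock) for 30 min at 37C. cAMP was measured by HTRF (cAMP-d2 plus anti-cAMP antibody-K) after 30 min at room temperature.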
# gsp antag – qHTS for Antagonists of gsp, the Etiologic Mutation Responsible for Fibrous Dysplasia/McCune-Albright Syndrome: qHTS. 340,000 tested, 0.4% active. gsp-mutant cells, cAMP HTRF, 30 min; control for the full effect not named in the record. Potency, µM (titrated, usually from 76.9 µM), for the others: at the top dose activity change, negative = inhibition, usual class: inhibitors. AID 624288, 2012; active = falling curve of any shape with a large fitted effect; inconclusive = falling curve, mostly with a smaller effect; inactive = flat or rising curve; cell line not stated here;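 note: intracellular cAMP measured with PDE inhibitor Ro 20-1724 present during compound exposure; potency is the fitted concentration of half-maximal effect; % is set by controls: 0 for no effect and ±100 for the full control effect; nearly all actives have a fitted effect of over 65% in size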
#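 Cells in G418 medium, seeded 16-24 h, 37C; buffer exchange to DPBS + 1 mM CaCl2, 0.5 mM MgCl2, 0.05% BSA; cpds in DMSO + […] (300 uM stock), 30 min 37C; HTRF cAMP detection.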
# Active calls of the source: *; ? = inconclusive; . = no result given; & = joins results of further samples; [ ] = dose if it differs, or a comment.
SMILES,Sfp PPTase inh,Menin-MLL FL inh,D2 agonist,ClpP mod,PINK1 modulator,gsp agonist,gsp antag
CCOC(=O)C1CCN(S(=O)(=O)c2cccc(-c3cn4cc(C)ccc4n3)c2)CC1,18%,-1.3,4.1,-16%,3.5%,8%,-11%
O=C(Cc1ccc(N2CCNC2=O)cc1)N1CCCC(Nc2cccc(F)c2)C1 (configuration not stated),10%,.,1.4,1.3%,6.8%,1%,5%
Cc1ccccc1C(=O)NC(=S)NCc1ccccc1,10%,-1.4,-2.8,.,0.4%,9%,8%
O=C(Nc1cccc(F)c1)NC1CCCCCCC1,8%,.,-3.0,1.7%,?,-5%,-14%
COc1cc(NS(=O)(=O)c2ccc(NC(=O)/C(=C\c3ccccc3OC)NC(=O)c3ccccc3)cc2)nc(OC)n1,10%,-2.2,-0.1,1.2%,.,2%,-24%
COc1ccccc1C(=O)Nc1c2c(nn1-c1ccc(Cl)cc1)CS(=O)(=O)C2,-20%,-2.3,-2.7,-6.1%,16%,9%,8%
COCc1cccc(-c2csc(C(NC(C)=O)c3cccc(OC)c3)n2)c1 (configuration not stated),.,.,-1.1,1.6%,0.5%,.,.
CC(=O)N1c2ccc(S(=O)(=O)N(C)Cc3ccco3)cc2CC1C (configuration not stated),-8%,-4.2,-6.7,-1.6%,0.4%,0%,4%
Cc1ccc(S(=O)(=O)Nc2ccc(Nc3nccn4c(-c5ccccc5Oc5ccccc5)cnc34)cc2)cc1,.,.,-7.2,?,2.2%,.,.
COCC(=O)Nc1cccc(C(F)(F)F)c1,3%,-3.4,-5.8,-0.2%,-1.0%,6%,0%
CC(=O)Nc1cc(C(=O)OCc2cccc([N+](=O)[O-])c2)ccc1C,11%,-1.8,5.0,.,0.1%,1%[15.4 µM],-3%
c1ccc(CCC2=NCCn3cccc32)cc1,2%,2.1,-2.2&2.6,?,0.4%,-21%[15.4 µM],2%&0%
O=C(Cn1c(=O)c2c(ncn2Cc2ccccc2)n(Cc2ccccc2)c1=O)NC1CC1,?,1.8,-4.5,-0.2%,1.5%[38.3 µM],-4%,-1%
CCOc1ccccc1NC(=O)C1CC2CCCC(C1)C2=O (configuration not stated),21%,2.5,-2.1,0.5%,-0.3%[38.3 µM],9%,5%
CCC(C)Nc1nc(N)c([N+](=O)[O-])c(Nc2cc(OC)ccc2OC)n1 (configuration not stated),-12%,0.5,-0.2,.,1.9%,9%[15.4 µM],9%
CCOC(=O)N1CCc2c(sc(N)c2C#N)C1,56µM*,8.6,?,.,1.1%,23%,-3%
CC1Cc2ccccc2N1c1ncnc(N)c1[N+](=O)[O-] (configuration not stated),4%,-5.6,-0.9,0.5%,-0.2%,-17%,6%
CCN(CC(=O)N1CCc2ccccc2C1)S(=O)(=O)c1ccc2ccccc2c1,3%,0.8,0.5,-1.4%,2.8%[38.3 µM],11%,?
Cc1cc(NC(=O)CSc2sc3c(O)cc(=O)[nH]c3c2C#N)ccc1Br,?,31[activator],1.8,.,5.0%,25%,-1%
CCCCn1c(CCNC(=O)c2cccs2)nc2ccccc21,-7%,2.2,-2.9,-2.1%,-2.2%,7%,-2%
COc1cccc(C2=NOC(C(=O)Nc3cccnc3Cl)C2)c1 (configuration not stated),18%,-7.8,-2.1,.,0.7%,-74%[inhibitor],4%
O=C(Nc1cccc2ccccc12)NC(Cc1ccccc1)C(=O)O (configuration not stated),14%,-0.2,-3.8,-27%,-0.3%,4%[15.4 µM],6%
CN(C)c1nc2sc3c(c2c(=O)n1C)CC(C)(C)OC3,16%,3.6,-2.7,-8.3%,-0.9%,-2%,0%
CSc1ccc(C2=C/C(=C3/SC(=S)NC3=O)c3ccccc3O2)cc1,.,.,1.0,.,1.9%,26%[15.4 µM],4%

# Some of these compounds in order of the Sfp PPTase inh value, largest number first.
Structure,Sfp PPTase inh
COc1cccc(C2=NOC(C(=O)Nc3cccnc3Cl)C2)c1 (configuration not stated),18%
O=C(Nc1cccc2ccccc12)NC(Cc1ccccc1)C(=O)O (configuration not stated),14%
CCCCn1c(CCNC(=O)c2cccs2)nc2ccccc21,-7%

# Later entries:
SMILES,Sfp PPTase inh,Menin-MLL FL inh,D2 agonist,ClpP mod,PINK1 modulator,gsp agonist,gsp antag
Cc1ccc(-n2c(C)cc(/C=N/NC(=O)CN(c3ccc(C)cc3C)S(C)(=O)=O)c2C)cc1,12%,1.9,-2.5,-2.4%,6.2%,?,11%
COc1ccc(OC)c(CNC(=O)C2CCCN(c3ncnc4c3nc3n4CCCCC3)C2)c1 (configuration not stated),6%,-3.4,-0.6,.,1.4%,-46%[inhibitor],-21%
O=C(Nc1nc2ccc([N+](=O)[O-])cc2s1)C1CCCO1 (configuration not stated),5%,-0.9,-6.5,.,-0.7%,-15%[15.4 µM],-12%
Cc1ccc(N=Nc2c(N)n(-c3ccccc3)[nH]c2=O)cc1,10%,1.4,-6.8,0.5%,6.9%,0%,0%
COc1ccc(CN=C(Nc2ccccc2)SC2CC(=O)N(C)C2=O)cc1 (configuration not stated),-2%,2.6,-2.2,1.0%,-2.2%,0%,7%
O=c1cc(-c2ccccc2)oc2ccc(O)cc12,-10%,0.1,-1.3,-0.6%,-1.8%,-3%,-10%
C=CCOn1c(-n2nc(C)cc2C)nc2ccccc2c1=O,8%,6.3,-3.4,.,-1.1%,3%[15.4 µM],7%
O=C(COC(=O)c1cccc(S(=O)(=O)NCc2ccccc2)c1)Nc1ccccc1OC(F)F,-7%,1.8,0.4,-3.0%,-0.1%,-36%[inhibitor],-3%
Cc1ccsc1C(=O)OCC(=O)N(Cc1ccccc1)C(C)C,.,.,-3.4,.,-2.7%,-4%,-8%
O=C(COC(=O)C(Cc1ccccc1)NC(=O)c1ccc(Cl)cc1)c1ccc(Cl)cc1 (configuration not stated),28%,5.9,-6.1,-1.9%,-1.1%,3%,-7%
Cc1ccc(NC(=O)COC(=O)CSC(=S)N2CCOCC2)cc1,20%,-1.9,0.6,0.3%,-2.2%,-85%[inhibitor],-4%
CC(C)COc1ccc(C(=O)Nc2scc(-c3ccc(Cl)cc3Cl)c2C(N)=O)cc1,12%,1.7,-1.4,?,3.3%,9%,-3%
COc1cc(OC)cc(C(=O)N(Cc2cc3cc(C)ccc3[nH]c2=O)C(C)C)c1,-5%,5.9,-4.4,-27%,-0.6%,10%,10%
COc1ccc(CCNc2oc(COc3ccccc3)nc2C#N)cc1,-3%,3.0,-3.6,-1.8%,-0.1%,-7%,-14%
CCc1nnc(NC(=O)c2ccc(S(=O)(=O)N(CCOC)CCOC)cc2)o1,?,5.3,-1.8,2.4%,-0.1%,-4%,-8%
O=C(CSc1nc2ccccc2[nH]1)Nc1nc(-c2ccc(Br)cc2)cs1,24%,.,0.7,0.2%,7.6%,-2%,-22%
CN(CCO)C(=O)c1ccc(-c2nn(C)c(=O)c3ccccc23)cc1,11%,3.7,0.0,-3.6%,1.3%,-12%[15.4 µM],-7%
CCc1nc2c(s1)CCc1onc(-c3ccc(Cl)cc3)c1-2,.,.,-3.0,-4.2%,3.5%,.,-6%
COc1ccc(S(=O)(=O)N2CC=C(C(=O)NC3CCCC3)CC2)cc1,8%,.,1.5,-2.5%,-1.5%,19%,4%
CCN1CCN(C(=O)C(NS(=O)(=O)c2ccc3nc(C)sc3c2)C(C)C)CC1 (configuration not stated),19%,-2.0,-1.3,1.2%,1.1%,-49%[inhibitor],5%
COc1cccc(Cn2c(N)c(C#N)c3nc4ccccc4nc32)c1OC,3%,?,-1.7,13µM*,3.0%,?,25%
Cc1ccc(S(=O)(=O)N2CCN(C(=O)CCc3nc4ccccc4c(=O)[nH]3)CC2)c(C)c1,.,.,-4.9,.,0.5%,7%[15.4 µM],-13%
CCCCN=C1N/C(=C\c2ccco2)C(=O)N1c1ccccc1,56µM*,?,-4.1,-2.2%,-1.0%,-1%,-3%
NS(=O)(=O)OCC1CCCCC1,17%,-6.6,-3.1,2.0%,0.6%,-1%,9%
CC(=O)c1ccc(NC(=S)Nc2ccc(Br)c(Cl)c2)cc1,7%,-3.2,-2.5,-1.7%,?,-30%[inhibitor],-16%
CCn1cc(C(=O)OCC(=O)N(C)C2CCS(=O)(=O)C2)c(=O)c2ccc(C)nc21 (configuration not stated),19%,0.8,0.6,-0.6%,-0.3%,-1%,9%
Cc1ccc(NC(=O)C2=NNC(=O)CC2)cc1F,11%,-1.3,-3.5,.,0.0%,-4%[15.4 µM],1%
O=C(NCC(c1ccc(F)cc1)N1CCOCC1)c1ccc(Br)o1 (configuration not stated),18%,0.9,-0.4,-2.3%,2.5%[38.3 µM],5%,-15%
COc1ccc(-c2nn(-c3ccccc3)cc2C2CC(c3cccs3)=NN2C(=O)CCC(=O)O)cc1 (configuration not stated),-2%,-3.0,-2.5,3.6%,-0.3%,-33%[inhibitor],?
O=C(N=C1SC2CS(=O)(=O)CC2N1c1ccc(Cl)cc1Cl)C1CC1 (configuration not stated),23%,-1.6,-0.5,1.7%,1.4%,4%,-6%
Cc1ccc(C)c(S(=O)(=O)NCCCN2CCOCC2)c1,17%,-0.8,0.9,.,0.3%,?,9%
O=C(Cc1ccc(Cl)cc1)Nc1cccc(S(=O)(=O)N2CCCCC2)c1,.,.,0.9,-2.0%,14%,0%,-4%

# Not a hit list; overall some 5.1% were active at least once.
